FGF22 binding – binders of human FGF22 protein, primary screen, FGF22 synaptogenesis inhibitor project, biophysical, thermal shift, single point | AID 651658, 2012 | Fibroblast growth factor 22 (Homo sapiens), Q9HCT0 | recombinant FGF22 thermal shift, SYPRO orange fluorescence; percent of sucrose octasulfate shift, DMSO zero | calls only at 9.99 µM | 1.5% of 340,000 active;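 active = melting point raised past a set limit in the mean and every replicate; inconclusive = no clear call; three in four hits are not shown here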
Target sequence (Q9HCT0 whole entry, looked up): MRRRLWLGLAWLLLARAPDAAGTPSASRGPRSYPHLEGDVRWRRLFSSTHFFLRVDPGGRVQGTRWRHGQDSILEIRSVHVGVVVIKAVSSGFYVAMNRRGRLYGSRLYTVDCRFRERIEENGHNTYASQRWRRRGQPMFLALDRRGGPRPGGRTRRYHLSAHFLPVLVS
rRNA inh HTS – reduced GFP signal of wild-type E. coli, primary screen, bacterial rRNA inhibitor project, GFP/RFP fluorescence, OD600, single point | E. coli WT GFP vs humanized-ribosome RFP mutants, 24 h; hits give low values; DMSO median 0, no signal -100 | GFP signal change (wild-type ribosome), % (concentration not given with the values) | 1.6% of 350,000 active;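 active = significant combined selectivity score with lowered wild-type GFP, culture density cut under 30%, mutant RFP and density less affected; inactive = any of these conditions unmet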; note: one replicate is shown; some compounds called inactive have numbers as strong as hits
MLL AF4-AF9 inh – inhibitors of AF4 peptide binding to AF9, primary screen, biochemical, AlphaScreen, biotin-AF4 peptide, FLAG-AF9, single point | Protein AF-9 (Homo sapiens), P42568 | inhibition, % at 10 µM | 0.47% of 350,000 active;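 active = every replicate reaching a set inhibition limit, whatever the replicate mean, cut at about 25% in these data; inconclusive = mean inhibition reaches that limit but some replicates miss it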;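 note: 0% = plate neutral control median and 100% = total signal loss; the record names both 10 and 1 µM as test concentration; the first replicate is given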
Target sequence (P42568 whole entry, looked up): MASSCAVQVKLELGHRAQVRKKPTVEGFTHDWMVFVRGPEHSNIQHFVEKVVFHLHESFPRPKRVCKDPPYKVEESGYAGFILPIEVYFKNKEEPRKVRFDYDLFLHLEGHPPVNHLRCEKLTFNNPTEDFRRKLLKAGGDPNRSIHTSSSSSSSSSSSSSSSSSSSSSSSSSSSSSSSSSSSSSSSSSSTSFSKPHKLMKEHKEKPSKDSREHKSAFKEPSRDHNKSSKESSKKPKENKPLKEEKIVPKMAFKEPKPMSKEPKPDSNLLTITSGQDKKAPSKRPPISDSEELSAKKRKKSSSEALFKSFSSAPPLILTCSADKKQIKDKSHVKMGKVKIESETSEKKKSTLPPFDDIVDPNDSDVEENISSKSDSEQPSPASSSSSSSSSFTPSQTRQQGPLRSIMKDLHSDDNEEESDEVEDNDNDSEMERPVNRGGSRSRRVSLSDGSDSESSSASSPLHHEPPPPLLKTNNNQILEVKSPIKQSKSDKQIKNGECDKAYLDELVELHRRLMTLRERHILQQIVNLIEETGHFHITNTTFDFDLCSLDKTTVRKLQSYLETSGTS
rRNA inh HTS OD600 – also measured in rRNA inh HTS; calls as there; OD600 change, %; measured here: OD600 growth;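 optical density of the mix in the first replicate; 0 = DMSO median and -100 = no signal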
rRNA inh HTS RFP – further read-out of rRNA inh HTS, marked with its call; RFP signal change, %; measured here: RFP humanized mutant strains;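 first replicate; 0 = DMSO median and -100 = no signal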
* hit, by the source's call; i = inactive; ? = inconclusive; & = joins results of further samples.

The first 2 entries, to show the layout:
cpd	smiles	rRNA inh HTS RFP	rRNA inh HTS OD600	rRNA inh HTS	MLL AF4-AF9 inh	FGF22 binding
1	OC[C@@H]1CN(Cc2cccs2)C[C@H](n2cnc3c(Nc4ccccc4)ncnc32)O1	-2.0	0.0	-3.8	1.4	i
2	Cc1ccc(S(=O)(=O)Nc2cccc3c2O[C@@H](CN(C)S(=O)(=O)c2ccc(Cl)cc2)[C@@H](C)CN([C@@H](C)CO)C3=O)cc1	0.4	1.9	-0.8	-1.9	i

All compounds of this part, repeating the preview:
cpd	smiles	rRNA inh HTS RFP	rRNA inh HTS OD600	rRNA inh HTS	MLL AF4-AF9 inh	FGF22 binding
1	OC[C@@H]1CN(Cc2cccs2)C[C@H](n2cnc3c(Nc4ccccc4)ncnc32)O1	-2.0	0.0	-3.8	1.4	i
2	Cc1ccc(S(=O)(=O)Nc2cccc3c2O[C@@H](CN(C)S(=O)(=O)c2ccc(Cl)cc2)[C@@H](C)CN([C@@H](C)CO)C3=O)cc1	0.4	1.9	-0.8	-1.9	i
3	COc1ccc2c3c([nH]c2c1)[C@@H](CO)N(C(=O)Cc1ccccc1)CC31CN(C(=O)Nc2ccccc2F)C1	1.2	-6.7	-6.6	-1.6	i
4	CC(C)NC(=O)Nc1ccc2c(c1)C(=O)N([C@H](C)CO)C[C@@H](C)[C@H](CN(C)C(=O)c1ccncc1)OCCCC[C@H](C)O2	-2.7	0.1	-1.4	-2.9	i
5	CCC(=O)N1C[C@H](C)[C@@H](OC)CN(C)C(=O)c2ccc(NC(=O)CC(F)(F)F)cc2OC[C@H]1C	2.1	1.0	2.2	-3.4	i
6	Cc1ccc(S(=O)(=O)N(C)C[C@H]2OCCCC[C@@H](C)Oc3ccc(NS(=O)(=O)c4ccc(F)cc4)cc3C(=O)N([C@H](C)CO)C[C@@H]2C)cc1	0.3	0.9	0.5	-1.1	i
7	CCCC#Cc1cnc2c(c1)C(=O)N([C@@H](C)CO)C[C@@H](C)[C@@H](CN(C)C(=O)c1cnccn1)O2	-0.4	2.2	9.6	-8.5	i
8	CCCCCCn1cc(CN2CC(N3CCN(C4CCN(C)CC4)CC3)CS2(=O)=O)nn1 (stereo not given)	-0.7	6.4	4.9	-0.1	i
9	CC(=O)Nc1cccc(-c2cc(NC=O)c3ncc(-c4ccc(C(C)=O)cc4)n3c2)c1	-5.5	-17.3	-9.0	0.0	i
10	CCCNC(=O)N1[C@H](C(=O)N2CCCCC2)[C@@H](CO)[C@@H]2Cn3c(ccc(-c4ccc(F)cc4)c3=O)[C@@H]21	1.3	4.5	0.8	-1.7	i

Next part:
cpd	smiles	rRNA inh HTS RFP	rRNA inh HTS OD600	rRNA inh HTS	MLL AF4-AF9 inh	FGF22 binding
11	CO[C@@H]1CN(C)C(=O)c2ccc(NC(=O)Nc3ccccc3F)cc2OC[C@H](C)N(CC2CC2)C[C@@H]1C	1.5	2.8	1.8	0.0	i
12	Cc1ccc(S(=O)(=O)N(C)C[C@@H]2Oc3ccc(NC(=O)C4CCCCC4)cc3C(=O)N([C@@H](C)CO)C[C@H]2C)cc1	-0.9	-29.9	-4.5	-12.7	i
13	Nc1sccc1C(=O)NCc1ccccc1	12.3	8.2	-3.2	-0.9	i
14	C[C@H]1CCCCO[C@@H](CN(C)C(=O)c2ccccc2)[C@@H](C)CN([C@@H](C)CO)C(=O)c2cc(NC(=O)c3ccccc3)ccc2O1	1.8	-6.6	-0.9	1.4	i
15	C[C@@H]1CN([C@@H](C)CO)S(=O)(=O)c2ccc(-c3cncnc3)cc2O[C@@H]1CN(C)Cc1ccccn1	-2.9	13.0	-1.1	-2.6	i
16	COc1ccc(CN(C)C[C@H]2OCCCC[C@H](C)Oc3ccc(NC(=O)Nc4cccc5ccccc45)cc3C(=O)N([C@@H](C)CO)C[C@H]2C)cc1	4.3	1.4	1.4	-6.8	i
17	OC(CCN1CC2CCC(CC2)C1)(Cc1ccccc1)c1ccco1 (stereo not given)	0.4	-2.1	-2.3	3.4	i
18	O=C(c1ccc(F)cc1)N1CCCCN2[C@@H](CO)[C@H](c3ccc(/C=C/c4ccccc4)cc3)[C@@H]2C1	4.1	-54.6	-53.5	23.4	i
19	C/C=C/c1ccc2c(c1)O[C@@H](CN(C)Cc1ccccc1)[C@@H](C)CN([C@@H](C)CO)S2(=O)=O	26.0	-48.1	-5.7	12.6	i
20	CCC(=O)N(C)C[C@@H]1Oc2cc(C#Cc3ccccn3)ccc2S(=O)(=O)N([C@@H](C)CO)C[C@@H]1C	4.2	1.5	3.3	0.7	i

Further records:
cpd	smiles	rRNA inh HTS RFP	rRNA inh HTS OD600	rRNA inh HTS	MLL AF4-AF9 inh	FGF22 binding
21	CCC(=O)Nc1ccc2c(c1)OC[C@H](C)N(C(=O)c1ccccc1F)C[C@H](C)[C@H](OC)CN(C)C2=O	-0.9	0.4	-2.3	-0.8	i
22	O=S(=O)(N[C@H]1CC[C@@H](CCn2cc(C3(O)CCCC3)nn2)O[C@@H]1CO)c1ccc(Cl)cc1	0.0	-5.9	-3.2	-0.5	i
23	CCCC#Cc1cnc2c(c1)C(=O)N([C@H](C)CO)C[C@@H](C)[C@H](CN(C)S(=O)(=O)c1cccc(OC)c1)O2	2.3&5.6	-13.7&-6.1	-6.3&-1.5	3.2&1.7&1.8	i
24	C[C@@H]1CN([C@H](C)CO)C(=O)c2cc(C#C[C@@H](C)O)cnc2O[C@H]1CN(C)C(=O)c1ccccc1	-2.4	-1.3	0.7	0.3	i
25	Cc1c(NS(=O)(=O)c2cc(C(=O)OCC(=O)c3ccccc3F)ccc2Cl)c(=O)n(-c2ccccc2)n1C	-2.9	-4.4	2.1	0.3	i
26	Oc1ccc(Cl)cc1CNC1CCCCC1	0.1	-0.1	7.1	-0.8	i
27	C[C@@H]1CCCCO[C@@H](CN(C)C(=O)C2CCCCC2)[C@H](C)CN([C@H](C)CO)C(=O)c2cc(NC(=O)Nc3ccc(F)cc3)ccc2O1	0.5	0.5	1.4	8.2	i
28	Cc1ccc(S(=O)(=O)N(C)C[C@@H]2Oc3cc(C#Cc4ccccc4)ccc3S(=O)(=O)N([C@@H](C)CO)C[C@H]2C)cc1	-0.2	2.6	2.2	-1.4	i
29	CO[C@H]1CN(C)C(=O)c2ccc(NC(=O)C3CCOCC3)cc2OC[C@H](C)NC[C@H]1C	-1.2	1.7	1.0	-4.8	i
30	C[C@@H]1CN([C@@H](C)CO)C(=O)c2cc(NS(=O)(=O)c3cccs3)ccc2O[C@H]1CN(C)Cc1ccc(C(=O)Nc2ccccc2N)cc1	0.2	-5.3	-2.4	0.4	i

New compounds follow
cpd	smiles	rRNA inh HTS RFP	rRNA inh HTS OD600	rRNA inh HTS	MLL AF4-AF9 inh	FGF22 binding
31	COc1ccc(NC(=O)CCNC(=O)C2CCN(S(=O)(=O)c3ccccc3)CC2)cc1OC	-2.9	9.6	2.8	-1.8	i
32	O=C(C[C@H]1C=C[C@H](NC(=O)c2ccc(F)cc2)[C@@H](CO)O1)NCc1ccncn1	-0.1	-2.8	0.5	-6.3	i
33	CCc1nc2ccc(C(=O)N(CC)CCN(C)C)cn2c1N(C)Cc1cccs1	0.0	12.0	1.3	4.1	i
34	Cc1cccc(-c2ccc([C@@H]3[C@@H](CO)N4CCCCN(Cc5cncnc5)C[C@@H]34)cc2)c1	0.9	12.8	2.9	3.5	i
35	Cc1noc(C)c1S(=O)(=O)Nc1ccc2c(c1)C(=O)N([C@H](C)CO)C[C@H](C)[C@H](CN(C)S(=O)(=O)c1c(C)noc1C)OCCCC[C@@H](C)O2	-1.0	3.1	4.3	-9.2	i
36	O=C(C1CCCCC1)N1CC2(C1)[C@H](c1ccccc1)[C@H](CO)N2Cc1nccs1	-1.3	-3.6	-3.5	-3.9	i
37	CSc1cnnc2ccccc12	0.4	5.6	-0.1	-1.0	i
38	O=C(COc1ccc(Br)cc1)N1CCN(c2ncccn2)CC1	-2.4	-4.9	-3.6	-0.9	i
39	C[C@H](CO)N1C[C@H](C)[C@@H](CN(C)CC2CCOCC2)Oc2ncc(-c3cncnc3)cc2C1=O	0.0	14.2	4.2	-5.2	i
40	COc1ccccc1-c1ccccc1[C@@H]1[C@H](C#N)N(C(=O)C2CCOCC2)[C@H]1CO	1.0	16.6	1.0	-0.2	i

(continued)
cpd	smiles	rRNA inh HTS RFP	rRNA inh HTS OD600	rRNA inh HTS	MLL AF4-AF9 inh	FGF22 binding
41	Cc1ccccc1S(=O)(=O)NC(=O)C1(C)CCN1C(=O)c1c(C)noc1C (stereo not given)	0.7	11.6	18.6	-1.6	i
42	C[C@@H]1CN([C@@H](C)CO)C(=O)c2cc(NC(=O)CCCN(C)C)ccc2O[C@@H](C)CCCCO[C@H]1CN(C)Cc1ccc2c(c1)OCO2	-2.5	-1.6	2.5	-0.2	i
43	C[C@H]1CCCCO[C@@H](CN(C)Cc2ccc(C(=O)O)cc2)[C@@H](C)CN([C@@H](C)CO)C(=O)c2cc(NC(=O)Nc3cccc4ccccc34)ccc2O1	1.1	-4.0	-1.0	2.6	i
44	CCC(=O)N[C@@H]1CC[C@H](CC(=O)NCc2cc(F)cc(F)c2)O[C@@H]1CO	0.1	-3.1	1.4	-0.4	i
45	C[C@@H]1CN([C@H](C)CO)C(=O)Cc2cc(N(C)C)ccc2O[C@H]1CN(C)C(=O)Nc1ccc2c(c1)OCO2	-0.3	4.3	0.1	-1.8	i
46	COc1cccc(C(=O)Nc2cc(S(=O)(=O)N3CCOCC3)ccc2N2CCOCC2)c1	3.0	-4.7	-3.8	3.0	i
47	C[C@@H]1CN([C@H](C)CO)C(=O)c2cc(C3=CCCC3)cnc2O[C@@H]1CN(C)C(=O)Nc1ccccc1	-1.4	5.8	-0.6	-1.3	i
48	CO[C@H]1CN(C)C(=O)c2cc(NC(=O)c3cc(C)on3)ccc2OC[C@@H](C)NC[C@@H]1C	-0.8	-2.2	3.4	-3.8	i
49	COc1cccc(S(=O)(=O)N(C)C[C@@H]2Oc3cc(C#CCC(C)C)ccc3S(=O)(=O)N([C@H](C)CO)C[C@@H]2C)c1	-3.0	10.1	2.5	-3.0	i
50	C[C@@H]1CN([C@H](C)CO)C(=O)Cc2cc(NC(=O)Cc3cn(C)c4ccccc34)ccc2O[C@@H]1CN(C)Cc1ccc(C(=O)O)cc1	-4.0	1.0	2.7	-0.5	i

(list continues)
cpd	smiles	rRNA inh HTS RFP	rRNA inh HTS OD600	rRNA inh HTS	MLL AF4-AF9 inh	FGF22 binding
51	C[C@@H]1CN([C@H](C)CO)C(=O)c2cccc(NC(=O)NC3CCCCC3)c2O[C@H]1CN(C)S(=O)(=O)c1ccccc1	2.1	3.5	1.2	-1.2	i
52	CCCNC(=O)N[C@@H]1CC[C@@H](CC(=O)NC2CCCCC2)O[C@@H]1CO	-1.5	-5.6	-0.2	-0.2	i
53	CN1CCN(C(=O)[C@@H]2[C@@H](CO)[C@@H]3Cn4c(cccc4=O)[C@@H]3N2Cc2cc(F)ccc2F)CC1	2.7	-2.4	-1.0	-2.2	i
54	CN(C)CC(=O)N1[C@@H](CO)[C@@H](c2ccccc2)C12CN(C(=O)C1CCCC1)C2	0.1	3.8	1.6	-2.4	i
55	CC1C(=O)N(Cc2cn(Cc3ccco3)nn2)CCS(=O)(=O)N1Cc1ccc(-c2ccc(F)nc2)cc1 (stereo not given)	7.4	15.6	9.3	-8.2	i
56	O=C1C=C(NS(=O)(=O)c2ccccc2)C(=O)c2ccccc21	-3.7	-42.5	-15.2	1.1	i
57	CO[C@H]1CC[C@H]2CCOc3c(C#N)cccc3C(=O)N(C)CCCC(=O)N(C)C[C@H]1O2	-3.4	7.4	2.9	-4.0	i
58	CCNC(=O)C[C@H]1CC[C@H]2[C@@H](COC[C@H](O)CN2C(=O)c2cccnc2)O1	12.9	0.9	4.3	0.7	i
59	CCNC(=O)Nc1ccc2c(c1)C(=O)N(C)[C@H]1CC[C@H](CC(=O)Nc3ccccc3)O[C@H]1CO2	-0.7	4.3	2.9	0.0	i
60	C[C@@H]1CN([C@H](C)CO)C(=O)Cc2cc(NS(=O)(=O)c3ccc(Cl)cc3)ccc2O[C@H]1CN(C)S(C)(=O)=O	-3.1	-0.3	-2.1	0.9	i

More structures follow:
cpd	smiles	rRNA inh HTS RFP	rRNA inh HTS OD600	rRNA inh HTS	MLL AF4-AF9 inh	FGF22 binding
61	CCC(=O)N(CC)C[C@@H]1[C@@H](c2ccccc2)[C@H](CO)N1C(C)=O	-0.3	-1.2	1.4	-2.4	i
62	CCOC(=O)[C@]12CCC=C1N(Cc1ccccc1)C(=O)[C@H](CC(=O)NCc1cccc3ccccc13)C2	9.2	-6.1	-5.8	0.5	i
63	CCOC(=O)N1C2c3ccccc3C(c3ccccc32)N1C(=O)OCC	-0.5	-5.2	-2.3	?	i
64	CCN1[C@@H]2Cn3c(ccc(-c4ccncc4)c3=O)[C@H]1[C@@H](C(=O)NCc1ccccc1)[C@@H]2CO	0.1	5.3	4.4	-16.8	i

Bioassay records deposited in PubChem BioAssay by Broad Institute.

Some of the compounds tested. The share of hits here may be higher or lower than overall.
